# From PubChem BioAssay
# LT uptake inh: inhibitors of anthrax lethal toxin internalization | AID 912 | 70,000 tested, 0.67% active | Potency, µM (doses to about 40 µM), for the others: at the top dose activity change, negative = inhibition, hits mostly inhibitors | Cells, anthrax lethal toxin internalization, FRET ratio (460/530); active = well fitted falling ratio curve with the 530 nm signal flat; inconclusive = other ratio curves, or a change in one channel alone; inactive = flat curves in the ratio and both channels; the % refers to the ratio; note: % is set by controls: 0 for no effect and ±100 for the full control effect; nearly all actives have a fitted effect of over 50% in size; tested in ME-180 cells; beta-lactamase reporter
# Prx2 Sm inh: blocks S. mansoni peroxiredoxin 2 enzymatic activity; S. mansoni Prx2 activity coupled to TGR/GSH (TGR is thioredoxin glutathione reductase), NADPH fluorescence loss, qHTS; some inactives read as strong as hits; Potency, µM; 65,000 tested, 0.07% active; AID 448; active means full or partial inhibition curve with a strong effect at the top dose; inconclusive means weaker partial or single-point curve; inactive means no accepted curve; note: series up to 57 µM; many of its hits are not listed in these tables
#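 Enzyme mix: 100 uM NADPH, 25 nM TGR, 700 uM GSH, 50 nM Prx2 in 100 mM phosphate pH 7.4, 10 mM EDTA, 0.01% Tween-20. 15 min RT with compound; NADPH/GSH added, H2O2 starts reaction; NADPH fluorescence read 8 min.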
# * hit, by the source's call; ? = inconclusive; · = no result given; [ ] = dose if it differs, or a comment. Potency is the fitted concentration of half-maximal effect. An excerpt, so the mix of outcomes need not match the whole.
SMILES	LT uptake inh	Prx2 Sm inh
CCOC(=O)CNC(=O)C(NC(=O)C1CCC(C)CC1)C(C)CC (configuration not stated)	-29%	>57
COC(=O)c1ccc(CS(=O)(=O)c2ccccc2C)o1	·	>57
O=c1oc2ccccc2cc1-c1nnc(-c2cccc(Br)c2)o1	-14%	>57
Cn1c(=O)c2c(nc(N3CCOCC3)n2CC(=O)c2ccccc2)n(C)c1=O	2%	>57
COc1ccccc1-c1cc(C(F)(F)F)nc(S(=O)(=O)CCCC(=O)Nc2cc(C)on2)n1	?	>57
Cc1cc(C)n(-c2nc(NC(C)(C)C)nc(NC(C)(C)C)n2)n1	-15%	>57
COc1ccc(S(=O)(=O)N2CCN(S(=O)(=O)c3ccc4c(c3)OCCO4)CC2)cc1	?	>57
Cn1cccc1P(=O)(c1cccn1C)c1cccn1C	?	>57
[O-]/[N+](=C\c1ccncc1)c1ccccc1	-17%	>57
COc1ccccc1N1CCN(C(=O)c2ccc(S(=O)(=O)N3CCCC3)cc2)CC1	7%	>57
Cn1c(=O)c2c(nc(N3CCCCCC3)n2Cc2cccc3ccccc23)n(C)c1=O	3%	>57
CCn1cc(C(=O)N2CCN(C3CCCCC3)CC2)c2cc(OC)c(OC)cc2c1=O	9%	>57
CCn1c(COc2ccccc2)nnc1SCC(=O)CC(=O)Nc1ccccc1OC	-6%	>57
CCOC(=O)c1c(NC(=O)CSc2nnc(CNC(=O)c3ccco3)n2C)sc2c1CCC2	-5%	>57
Cc1ccc(-c2csc(N3CCC(C(N)=O)(N4CCCCC4)CC3)n2)cc1	-2%	>57

# Single records, from the list above.
# Cn1c(=O)c2c(nc(N3CCOCC3)n2CC(=O)c2ccccc2)n(C)c1=O as listed: LT uptake inh: 2%; Prx2 Sm inh: >57
# Cn1cccc1P(=O)(c1cccn1C)c1cccn1C as listed: LT uptake inh: ?; Prx2 Sm inh: >57

# Carrying on.
SMILES	LT uptake inh	Prx2 Sm inh
Nc1cccc(N=Cc2c(O)n(Cc3ccc(F)cc3)c(=O)[nH]c2=O)c1	?	>57
CCCCCCN(C(=O)CCCCCN1C(=O)NC(c2ccc(-c3ccccc3)cc2)C(C(=O)OCc2ccccc2)=C1C)C(C(=O)NCCCC)c1ccc(OCC(=O)O)c(C(=O)O)c1 (configuration not stated)	-3%	·
COc1cccc(-c2cc(C(=O)N3CCCc4ccccc43)no2)c1	-12%	>57
CN1CCc2cccc3c2[C@H]1Cc1ccc(O)c(O)c1-3	?	>57
Cc1cc(C(=O)COC(=O)Cn2c(C(F)(F)F)nc3ccccc32)c(C)n1Cc1ccco1	-2%	·
Cc1oc(/N=C/c2cccc3ccccc23)c(C#N)c1C	-6%	·
CCOC(=O)c1[nH]c2ccc(F)cc2c1NC(=O)c1cc(OC)c(OC)c(OC)c1	-16%	>57
CC(=NCC1CCCO1)c1c(O)n(-c2ccccc2)c(=O)[nH]c1=O (configuration not stated)	·	>57
CCOC(=O)CSC1=C(C#N)C(c2ccc(C)cc2)C2=C(CCCC2=O)N1 (configuration not stated)	16%	>57
c1coc(-c2nn3c(-c4ccco4)nnc3s2)c1	?	>57
N#C/C(=C\c1ccc[nH]1)Sc1nc2ccccc2s1	?	·
Cc1ccc(C)c(-c2nc3ccc(N)cc3[nH]2)c1	5%	>57
O=C(NCCC(=O)N1CCN(c2ncccn2)CC1)c1ccccc1	1%	>57
COc1cc(NC(=O)c2cc(CC(C)C)on2)c(OC)cc1Cl	?	>57
CCC(C)Oc1cccc(OCCCCN2C(=O)NC(C)(C)C2=O)c1 (configuration not stated)	-5%	>57

# Random excerpt: 2 records from the list.
SMILES	LT uptake inh	Prx2 Sm inh
N#C/C(=C\c1ccc[nH]1)Sc1nc2ccccc2s1	?	·
COc1cc(NC(=O)c2cc(CC(C)C)on2)c(OC)cc1Cl	?	>57

# More entries
SMILES	LT uptake inh	Prx2 Sm inh
Nc1ccc2oc(=O)c3ccccc3c2c1	-1%	>57
O=C(CSc1nnnn1C1CCCC1)NCc1ccc2c(c1)OCO2	?	>57
CC(C)c1nc(C#N)c(NCCCn2ccnc2)o1	-5%	>57
COc1ccccc1Oc1ccc2c(c1)C(=O)N(c1ccc(O)cc1)C2=O	0%	>57
CCSc1nc2cc(C(=O)OC)ccc2c(=O)n1CC	2%	>57
COCC(=O)Nc1sc2c(c1C(=O)OC)C(C(=O)OC)CC2 (configuration not stated)	10%	>57
CCOc1ccc2nc(NC(=O)Cn3cnc4c3c(=O)n(C)c(=O)n4C)sc2c1	-6%	>57
O=C(OCC(=O)N1CCCCCC1)c1n[nH]c(=O)c2ccccc12	11%	>57
COc1ccccc1CNc1ncnc2ccc(-c3cccc(C#N)c3)cc12	?	>57
COCCNC(=O)Cn1nc(C(F)(F)F)cc1C	-8%	·
CCn1c(SCC(=O)c2ccc(CNC(C)=O)o2)nnc1-c1cccs1	9%	>57
Cc1cccc(N(CC(=O)N2CCCC2)S(=O)(=O)c2ccccc2)c1C	16%	>57
Cc1nnc(SCC(=O)Nc2ccc(Cl)cn2)n1Cc1ccccc1	5%	>57
COc1cc(C2C3C(=O)N(c4ccccc4)C(=O)C3ON2c2ccccc2)cc(OC)c1OC (configuration not stated)	-1%	>57
CC(=O)Nc1c(C#N)c(C(C)(C)C)cn1C	8%	>57
Cc1nc2cnc(N3CCNCC3)nc2n(-c2ccccc2)c1=O	-7%	>11
Cc1cc(NC(=O)c2noc3c2CCCCC3)nn1Cc1ccc(Cl)cc1	3%	>57
CC(NC(=O)c1ccccc1)c1nc2ccccc2n1Cc1ccc(C#N)cc1 (configuration not stated)	-10%	·
CCOc1ccc(Oc2nc(NCC(C)C)nc(OC)n2)nn1	3%	>57
CCC(C)(C(=O)NC1CCCCC1)N(CC1CCCO1)C(=O)c1ccccn1 (configuration not stated)	-5%	>57
COc1ccc(OC)c(NC(=O)C(CC(=O)O)NCc2ccco2)c1 (configuration not stated)	-2%	>57
CC1(C)CC(=O)C2=C(C1)N(Cc1ccco1)C(=O)C2(NC(=O)C1CCCCC1)C(F)(F)F (configuration not stated)	-14%	>57
Cc1ccc2[nH]c3c(=O)n(CCN4CCNCC4)cnc3c2c1	?	>57
CCNc1nc(OC)nc(Oc2ccc(=O)n(-c3ccccc3)n2)n1	-2%	>57
O=C(NCCCN1CCN(c2ccccc2F)CC1)C1CCC(=O)N1C1CCCCC1 (configuration not stated)	-5%	>57
Cc1cc(NC(=O)Cn2cnc3c2c(=O)n(C)c(=O)n3C)n(-c2ccccc2)n1	-4%	>57
C/C(=C\c1ccc(Cl)cc1)C(C)(C)C(=O)O	-9%[8 µM]	>57
COc1cccc2cc(C(=O)C3=C(O)C(=O)N(Cc4ccco4)C3c3cccnc3)oc12 (configuration not stated)	8%	>57
COC(=O)c1cc2sccc2n1CC(=O)Nc1cc(OC)cc(OC)c1	-6%	>57
CCCCNC(=O)c1cc2c(=O)n3cccc(C)c3nc2n(Cc2ccccc2)c1=N	?	>57
CCOC(=O)NCCc1c(C)nc2c(c(C)nn2C(C)(C)C)c1C	-11%	>57
COc1ccccc1N1CCN(C2=CC(=O)CCC2)CC1	7%	>57
CCOc1ccccc1NS(=O)(=O)c1ccc(OC)c(OC)c1	-2%	>57
O=C1CC(=O)N(c2cccc(Cl)c2)C(=O)N1	-25%	>57
CC(=O)O/C(=C1/C[C@H]2[C@@H]3CC=C4C[C@@H](OC(C)=O)CC[C@]4(C)[C@@H]3CC[C@]2(C)C1=O)C(F)(F)F	?	>57
COc1ccc([C@@H](Nc2ccccn2)c2cc(C(C)(C)C)cc(C(C)(C)C)c2O)cc1	?	>57
CCOCCCNC(=O)C1CCC(=O)N1CCc1ccccc1 (configuration not stated)	0%	>57
CC(C)(C)NC(=O)CSc1nccn1Cc1ccccc1	-8%	·
CN(C)S(=O)(=O)c1ccc(NC(=O)c2ccccn2)cc1	20%	>57
O=C(Nc1cnccn1)C1c2ccccc2Oc2ccccc21	·	>57
O=C(Nc1nccs1)C1CCCN(S(=O)(=O)c2cccnc2)C1 (configuration not stated)	0%	>57
O=C(O)c1ccccc1-c1ccccc1C(=O)Nc1ccc2c(c1)[nH]c(=O)c1ccccc12	2%[8 µM]	>57
CCCS(=O)(=O)N1CCC(C(=O)NCC2CCCO2)CC1 (configuration not stated)	7%	>57
c1ccc(C2C3=C(CCCC3)Nc3ncnn32)cc1 (configuration not stated)	-14%	>57
O=C1CCC(c2ccccc2)N1C(=O)c1cccnc1 (configuration not stated)	20%	>57
CC(=O)N(c1ccccc1)c1c(F)c(F)c(F)c(F)c1F	?	>57
COc1ccc2nc(Nc3nc(C)c(C(C)=O)s3)sc2c1	?	>57
CCOC(=O)CSC1=C(C#N)C(c2ccco2)C(C(=O)Nc2cccc(C(F)(F)F)c2)=C(C)N1 (configuration not stated)	?	>57
CCNc1cccc2c1C(=O)N(C)C2=O	?	>57
COC(=O)N/C(C)=C1/NC(=O)c2ccccc2C(c2ccccc2)N1 (configuration not stated)	13%	>57
CCOCCCNC(=O)c1cn(C)c(=O)c2cc(OC)c(OC)cc12	9%	>57
Cn1cc(S(=O)(=O)N2CCC(Cc3ccccc3)CC2)c(=O)n(C)c1=O	5%	>57
CCn1cc(C(=O)NCc2ccc3c(c2)OCO3)c2cc(OC)c(OC)cc2c1=O	-12%	>57
COc1cc(C)c(CNc2ccc(OC)c(OC)c2)cc1C	18%	>57
Cn1c(=O)c2c(SC3CCCC3)nc(CC(C)(C)C)nc2n(C)c1=O	-15%	>57
c1cncc(-c2nc(NCc3ccco3)c3ccccc3n2)c1	?	>57
N#Cc1nc(Cc2ccccc2)oc1N1CCN(c2cccc(Cl)c2)CC1	-25%	>57
O=C(Nc1nccs1)c1nc(-c2ccccc2)n(-c2ccccc2)n1	4%	>57
CC(CCO)Nc1nc2c([nH]1)c(=O)n(C)c(=O)n2C (configuration not stated)	-2%	>57
Cc1ccc2cc(CCNC(=O)c3ccco3)c(=O)[nH]c2c1C	11%	>57

# (cont.)
SMILES	LT uptake inh	Prx2 Sm inh
Cc1ccccc1C(=O)N1CCN(c2nc(N3CCOCC3)nc(N3CCOCC3)n2)CC1	16%	>57
CN(C)c1nc(SCCOC(=O)COc2ccc(Cl)cc2Cl)nc(N(C)C)n1	5%	>57
Cc1cccc(N2CCN(C(=O)C3CCCN(S(=O)(=O)c4cccc5cccnc45)C3)CC2)c1C (configuration not stated)	?	>57
N#C/C(=C\c1c[nH]c2ccccc12)C(=O)c1ccc(O)c(O)c1	-3%	>57
COc1ccc2c3c(c(=O)oc2c1OCC(N)=O)CCCC3	-11%	>57
C=CC(C)(C)c1[nH]c2ccccc2c1C1=C(O)C(=O)C(c2c[nH]c3c(CC=C(C)C)cccc23)=C(O)C1=O	25µM*	>11
COc1ccc(NC(=O)N2CCC3(CC2)CCN(C(=O)c2ccco2)CC3)cc1	-2%	>57
CCOC(=O)CNC(=O)CSc1nnnn1-c1ccc(C)c(C)c1	5%	>57
Cc1ccc2cc(CN(Cc3ccc4c(c3)OCO4)Cc3nnnn3Cc3ccco3)c(=O)[nH]c2c1	?	>57
CC(C)C[C@@H](N)C(=O)Nc1ccc2ccccc2c1	0%[8 µM]	>57
Cn1nnnc1SCC(=O)Nc1ccc(Br)cc1Cl	?	>57
CCCCC(CC)COC(=O)c1ccccc1C(=O)OCC(CC)CCCC (configuration not stated)	?	·
CN(C)C(=S)c1ccc2ccccc2n1	-2%	·
CCOC(=O)CNC(=O)Nc1cc(C(C)(C)C)nn1-c1ccccc1	-8%	>57
Cc1ccc(CN2CCN(Cc3ccc(C)o3)[C@@H](C)C2)o1	-9%[8 µM]	>57
O=C(O)C(Sc1ccc(Cl)cc1)Sc1ccc(Cl)cc1	2%[8 µM]	>57
COCc1cc(C)nc(SCC(=O)N2CCC(C)CC2)c1C#N	2%	>57
O=C(CSc1nnc(-c2cccnc2)o1)Oc1ccccc1	-10%	>57
COc1ccccc1NC(=O)CSc1nnc(-c2ccccn2)n1Cc1ccco1	?	>57
CC(C(=O)Nc1ccccn1)N1C(=O)C2C3C=CC(C3)C2C1=O (configuration not stated)	-5%	>57
CC(=O)NC1C(=O)N=C(SCC(=O)NC(C)c2ccccc2)NC1=O (configuration not stated)	-6%	>57
CC(C)CN(CC(C)C)C(=O)CS(=O)(=O)Cc1ccccc1	7%	>57
COc1ccc(C2C(C(=O)N3CCOCC3)=C(C)NC3=C2C(=O)CC(C)(C)C3)cc1O (configuration not stated)	7%	>57
COc1ccc(CCn2c(-c3ccco3)nc3oc4ccccc4c(=O)c3c2=O)cc1	·	>57
CCCNC(=O)NC1C(NC(=O)NCCC)N(C)C(=O)N1C (configuration not stated)	?	>57
O=C(CSc1nnc(COc2cccc3ccccc23)o1)N1CCN(C(=O)c2ccco2)CC1	5%	>57
CCCCCn1c(CNC(=O)COC)nc2ccccc21	1%	>57
